Screening data (PubChem)
gsp ag – gsp mutant agonism; AID 624287; hit rate 0.13% among 340,000; Potency, µM (top dose mostly 76.9 µM), for the others: at the highest dose activation (cAMP increase), hits mostly activators; gsp mutant cells, cAMP HTRF, 30 min; control for the full effect not named in the record; active = well fitted activation curve with a large enough effect; inconclusive = small, poorly fitted or top-dose-only effect, or another doubt; inactive = no such curve, though single readings can be large or run the other way; cell line not stated here;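 further: phosphodiesterase inhibitor Ro 20-1724 added with compounds to block cAMP breakdown; potency means the concentration at half of the fitted maximal effect; nearly all actives have a fitted effect of over 60% in size; about a fifth of the inactives were tested at one dose only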
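Cells stably selected in G418 were plated at 2000/well, grown 16-24 hr, then given compounds in DMSO with the PDE inhibitor […] (300 uM solution added) for 30 min at 37C; cAMP was read by HTRF.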
CtBP-E1A inh – CtBP/E1A binding inhibition; AlphaScreen GST-E1A/His-CtBP binding, 1536-well; stronger effect = lower value; control for the full effect not named in the record; activity change, % (concentration not given with the values); hit rate 0.49% among 340,000; in the data active means activity change below about -65%; inconclusive means about -30% to -65%; inactive means above about -30%; further: on the % scale 0 is the no-effect control and ±100 the full control effect
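Homogeneous bead-based format: GST-tagged E1A captured on glutathione donor beads, His-tagged CtBP on nickel acceptor beads; compounds precede bead addition by 2 h at 37 °C.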
D2 agonist – agonists of human D2 dopamine receptor (beta-arrestin); AID 624465; P14416; activation, % (concentration not given with the values); hit rate 0.084% among 360,000; DiscoveRx PathHunter D2 beta-arrestin, luminescence, 90 min; 100% = 57 uM dopamine signal; in the data active = activation above about 40%; inconclusive = about 15% to 40%; inactive = below about 15%; further: compound concentration not given in the record; the text of the record calls up to 30% inactive
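Agonist mode: compounds alone added to overnight-plated D2 PathHunter cells for 90 min at 37 C, with 57 uM final dopamine (EC100) defining full response. Beta-arrestin recruitment detected by chemiluminescent reagent, read after 1 h at ambient temperature.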
gsp antag – antagonizes gsp, the McCune-Albright syndrome mutation; hit rate 0.4% among 340,000; Potency, µM (top dose mostly 76.9 µM), without a hit: at the highest dose activity change, negative = inhibition, most hits filed as inhibitors; gsp-mutant cells, cAMP HTRF, 30 min; control for the full effect not named in the record; active = falling curve of any shape with a large fitted effect; inconclusive = falling curve, mostly with a smaller effect; inactive = flat or rising curve; cell line not stated here;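 further: intracellular cAMP measured with PDE inhibitor Ro 20-1724 present during compound exposure; potency means the concentration at half of the fitted maximal effect; on the % scale 0 is the no-effect control and ±100 the full control effect; nearly all actives have a fitted effect of over 65% in size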
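Cells, 2000/well, grown 16–24 h in DMEM 10% FBS with 0.5 mg/ml G418, then compounds plus […] (300 uM addition stock), 30 min at 37C. cAMP read by HTRF (cAMP-d2 and anti-cAMP antibody-K in lysis buffer) after 30 min RT.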
Six1-Eya2 inh – inhibitors of human Six1/Eya2 interaction. Q15475+O00167. AlphaScreen GST-Six1/His-Eya2 binding, biochemical; stronger effect = lower value; control for the full effect not named in the record. activity change, % (no concentration beside the values). hit rate 0.56% among 360,000. AID 651725; in the data active = activity change below about -65%; inconclusive = about -30% to -65%; inactive = above about -30%; further: on the % scale 0 is the no-effect control and ±100 the full control effect; compound concentration not given in the record
Target sequence (O00167 whole entry, looked up): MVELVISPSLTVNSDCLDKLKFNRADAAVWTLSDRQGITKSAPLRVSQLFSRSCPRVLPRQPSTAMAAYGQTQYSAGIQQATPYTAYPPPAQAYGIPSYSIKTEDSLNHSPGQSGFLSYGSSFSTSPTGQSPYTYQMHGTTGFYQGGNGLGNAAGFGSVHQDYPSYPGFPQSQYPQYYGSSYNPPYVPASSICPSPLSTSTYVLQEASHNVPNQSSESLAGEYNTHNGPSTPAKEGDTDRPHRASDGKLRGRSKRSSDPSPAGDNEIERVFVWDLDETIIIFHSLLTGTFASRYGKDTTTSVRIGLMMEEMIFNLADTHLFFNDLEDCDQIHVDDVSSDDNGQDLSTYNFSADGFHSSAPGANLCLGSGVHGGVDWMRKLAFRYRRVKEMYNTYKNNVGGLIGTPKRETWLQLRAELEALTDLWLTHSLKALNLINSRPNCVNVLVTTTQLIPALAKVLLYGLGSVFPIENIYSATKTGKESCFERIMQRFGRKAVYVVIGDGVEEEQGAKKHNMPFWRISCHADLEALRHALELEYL
Target sequence (Q15475 whole entry, looked up): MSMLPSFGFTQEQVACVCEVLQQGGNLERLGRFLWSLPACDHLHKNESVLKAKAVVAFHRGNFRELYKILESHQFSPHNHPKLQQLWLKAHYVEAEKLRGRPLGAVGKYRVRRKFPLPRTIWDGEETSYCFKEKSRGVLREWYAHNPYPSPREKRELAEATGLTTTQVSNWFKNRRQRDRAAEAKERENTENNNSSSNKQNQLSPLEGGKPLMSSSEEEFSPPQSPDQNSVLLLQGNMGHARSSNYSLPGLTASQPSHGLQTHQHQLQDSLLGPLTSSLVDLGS
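AlphaScreen luminescence read after one hour at 37 °C in darkness. Pin-transferred compounds met GST-Six1 and His-Eya2 protein (5X stock 250 nM/500 nM) plus glutathione donor and Ni-chelate acceptor beads (5X, 50 ug/mL).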
D2 PAM – positive allosteric modulators of human D2 dopamine receptor. P14416. DiscoveRx D2 beta-arrestin cells, luminescence, 90 min; 100% = 57 uM dopamine signal. potentiation, % (concentration not given with the values). hit rate 0.23% among 360,000; active = potentiation of 50% or more; inconclusive = 30% to 50%; inactive = 30% or less;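 further: compound concentration not given in the record; tested on top of an EC20 dose of dopamine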
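PathHunter D2 cells, attached overnight at 37 deg C, received compound in DMSO plus dopamine at EC20 (50 nM final) for 90 min at 37 deg C. Beta-arrestin recruitment was read as luminescence after 1 h with detection reagent at ambient temperature.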
An asterisk follows results filed as active; ? = inconclusive; . = no result given; [ ] = another dose, or the depositor's remark.

Value order – gsp ag, CtBP-E1A inh, D2 agonist, gsp antag, Six1-Eya2 inh, D2 PAM
O=C(Nc1ccccc1)c1ccc(N2CCN(c3ccccc3)CC2)c(S(=O)(=O)N2CCOCC2)c1
    13%, -4, 0.1, 6%, 3, -6
CCOC(=O)[C@@H]1[C@H]2COc3cc(OC)ccc3[C@@H]2N2C(=O)N(c3ccc(F)cc3)C(=O)[C@]12C
    -9%, -8, -6.3, 7%, 2, -7
CC(=O)OC(C(=O)NC1CCCCC1)c1cccc(F)c1 (stereo not drawn)
    -60%[inhibitor], 10, 1.9, 2%, 1, -8
Cc1ccnc(SCc2cn3c(C)cc(C)nc3n2)n1
    ?, 1, -5.6, 12%, -8, -3
O=C(c1ccco1)N(CCC(c1ccccc1)c1ccco1)Cc1ccco1 (stereo not drawn)
    -70%[inhibitor], 0, -3.8, -14%, ?, -10
N#Cc1cccc(NC(=O)COC(=O)Cn2nc(-c3ccccc3)oc2=O)c1
    -22%, ., -5.3, -12%, 8, -7
O=C(/C=C/c1ccccc1)Nc1cccnc1Cl
    -6%[15.4 µM], 8, -1.7, 0%, -1, 3
Cc1cccc2c(=O)c(C(=O)N3CCCCCC3)c[nH]c12
    -5%, 14, -0.8, 19%, 7, -7
CCOC(=O)C1=C(C)NC(C)=C(C(=O)OCC)C1C(=O)OCC(=O)N1CC(C)OC(C)C1 (stereo not drawn)
    5%, 6, 3.6, 9%, -1, 0
O=C(Nc1cccc(NC(=O)c2cccnc2)c1)c1cccnc1
    ?, 7, -1.5, 4%, 3, -18
Cc1nc2ccc(Cl)cc2c(-c2ccccc2)c1C(=O)N(C)C
    18%, 6, -1.5, -3%, 3, -2
COc1ccc(CN(C)C(=O)CCC(=O)N2CCN(S(=O)(=O)c3ccc(Cl)cc3)CC2)c(OC)c1
    0%, 1, 1.6, ?, -2, 5
COC(=O)C(CCSC)NC(=O)c1cc2c(n(-c3ccccc3)c1=O)CCCC2=O (stereo not drawn)
    -30%, -2, -5.6, -20%, 1, -7
CC(C)Cn1c(-c2ccccc2)nc2ccccc2c1=O
    -11%, -2, -1.2, -2%, 0, -14
C=CCOC(=O)C1=C[C@@H](c2cn(C(C)=O)c3ccccc23)C[C@@H](OCCCCO)O1
    -10%, ., 3.2, -23%, -14, 20

(further entries)
Value order – gsp ag, CtBP-E1A inh, D2 agonist, gsp antag, Six1-Eya2 inh, D2 PAM
CCC(NC(=O)c1ccccc1NC(=O)c1ccco1)C(=O)NC1CCCCC1 (stereo not drawn)
    -3%, -1, -1.4, -2%, 3, -2
O=Cc1ccc(OCCN2CCCC2=O)cc1
    5%[15.4 µM], -6, 0.8, -2%, -6, -4
COc1cccc(C2=NOC(C(=O)N3CCN(C(=O)c4ccco4)CC3)C2)c1 (stereo not drawn)
    0%, -1, 2.8, -1%, -1, -1
Cc1cc(OC(=O)c2ccccc2C)c([N+](=O)[O-])c(=O)[nH]1
    -21%, ., -2.8, 15%, 6, -2
CC(=O)c1ccc(C(=O)N2CCCC(Nc3ccc(C(C)C)cc3)C2)s1 (stereo not drawn)
    7%, ., -1.5, 6%, -13, -11
O=C(CN1C(=O)c2ccccc2C1=O)NC1(C(=O)O)CCCC1
    -19%[15.4 µM], 0, 0.5, 2%, 5, -25
CC1=C(C)CC(C(=O)Nc2ccc(C(N)=O)cc2)C(C(=O)O)C1 (stereo not drawn)
    0%, 7, -1.3, 9%, 2, -7
Cc1nc2ccccc2c(=O)n1/N=C/c1ccc(N(C)C)cc1
    ?, 0, -1.3, 13%, 3, -1
O=[N+]([O-])c1cc(-c2cnc3ccccc3n2)ccc1Oc1ccc(Br)cc1
    -2%, -9, 1.3, -14%, -4, -7
COc1ccccc1C(=O)NC(=O)COC(=O)CN1C(=O)NC(C)(C)C1=O
    6%[15.4 µM], 1, -1.4, -7%, -5, -5
Cc1nc2nc(SCc3ccccc3)[nH]n2c(=O)c1C
    3%, ., -2.5, -11%, -4, 10
CCC(CC)NC(=O)/C=C/c1ccccc1Cl
    6%, 7, -0.6, 19%, -3, -12
Cc1ccccc1-n1ccnc1SCC(=O)NCc1ccco1
    -1%[15.4 µM], -3, -3.2, 10%, -5, -4
Cc1cc(Br)c(Cl)cc1NC(=O)CN1C(=O)C2C3CC(c4ccccc4)C(C3)C2C1=O (stereo not drawn)
    -1%, -1, -1.1, -14%, 1, -22
O=C(NCCCCCCCCNC(=O)c1cccc2ccccc12)c1cccc2ccccc12
    9%, 17, -0.2, 0%, 8, -13

Next section:
Value order – gsp ag, CtBP-E1A inh, D2 agonist, gsp antag, Six1-Eya2 inh, D2 PAM
C[C@H](CO)N1C[C@H](C)[C@@H](CN(C)Cc2ccc(-c3ccccc3)cc2)Oc2c(NS(=O)(=O)c3cccs3)cccc2C1=O
    -13%, -6, -2.7, -28%, -19, -7
O=C(Nc1ccc(Cl)cc1)C1CCC(=O)N1Cc1ccccc1Cl (stereo not drawn)
    -30%[inhibitor], 1, 2.9, 2%, 9, -7
CCOc1ccccc1CNn1cnnc1
    -2%, ., -3.6, 9%, 2, -13
CCOC(=O)[C@@H]1[C@H]2COc3cc(OC)ccc3[C@@H]2N2C(=O)N(c3ccc(Br)cc3)C(=O)[C@]12C
    ?, -6, -3.4, 0%, -27, -13
Cc1ccccc1-n1c(SC2CCOC2=O)nnc1-c1ccncc1 (stereo not drawn)
    23%, 1, -1.0, 1%, 1, -6
CC1(C)CC(NC(=O)COc2ccc3ccc(=O)oc3c2)CC(C)(C)N1
    ?, 0, 0.5, 10%, 4, -2
COc1ccc([N+](=O)[O-])c2c(=O)ccoc12
    7%, 4, -3.0, 17%, -13, -33
O=C(CN1C(=O)NC2NC(=O)NC21)NC1CCCCC1 (stereo not drawn)
    -1%, 9, -7.9, 12%, 1, -5
Cn1cc(Br)c(C(=O)NNC(=O)c2ccc(Cl)cc2)n1
    2%, -3, -0.7, 16%, -2, 6
COc1ccc2[nH]c(N=Nc3ccccc3C)c(O)c2c1
    -3%, -21, -4.4, -2%, -1, -9
CCN(C(=O)c1ccc(Br)o1)C1CCS(=O)(=O)C1 (stereo not drawn)
    12%[15.4 µM], 0, 12, 4%, -14, -7
CCn1c(COc2cccc3cccnc23)nnc1SCC(=O)O
    -44%[inhibitor], 9, -2.5, 1%, -4, 0
CCOC(=O)CC1NCCc2c1[nH]c1ccc(OC)cc21 (stereo not drawn)
    -19%[15.4 µM], 11, -4.3, 12%, 3, -20
O=C(C1CC1)N1CCc2cc(S(=O)(=O)NCCCN3CCCCC3)ccc21
    -4%, 1, 1.0, 9%, -4, -12
O=C(CCN1C(=O)/C(=C/c2cccs2)SC1=S)NC1=NCCS1
    2%, -10, -2.1, -3%, -8, -3

(next part)
Value order – gsp ag, CtBP-E1A inh, D2 agonist, gsp antag, Six1-Eya2 inh, D2 PAM
c1ccc2c3n(nc2c1)CCCCO3
    ., -23, -0.6, -9%, 1, -6
COc1ccccc1C(=O)Nc1ccccc1N1CCN(C(=O)c2ccc(Cl)cc2)CC1
    -25%, -2, -5.1, ?, -23, -18
Cc1cccc(N2CCN(S(=O)(=O)c3ccc(S(=O)(=O)N4CCCC4)cc3)CC2)c1C
    -46%[inhibitor], 8, -3.2, 3%, 11, -3
CSc1ccc(/C=N/Nc2ccc(Cl)c(C(=O)O)c2)cc1
    -23%[15.4 µM], 1, 2.3, -14%, -3, 7
COc1ccc(Cn2nnnc2C(c2ccc3ncccc3c2)N2CCN(C3CCCCC3)CC2)cc1 (stereo not drawn)
    ?, 0, -0.9, 4%, -2, -1
Cc1cccc(NNC(=O)C2CCC2)c1
    -22%, ., -4.3, 8%, 5, -23
Cc1ccc(NC(=O)N2CCCC2)cc1Cl
    -19%, -9, -0.1, 14%, 0, -5
O=[N+]([O-])c1cc(Cl)c(Cl)c(Cl)c1Cl
    ., -22, 3.6, 2%, 2, 0
COc1ccccc1CNc1nc(NCc2ccccc2SC)c2sccc2n1
    ., -25, -5.8, ., -29, -15
O=C1CSC(c2ccccc2[N+](=O)[O-])N1c1ccc(O)cc1 (stereo not drawn)
    -1%, ., 1.0, 9%, -4, 2
CC1CCN(C(=O)c2cc3c(=O)n4ccccc4nc3s2)CC1
    ?, -1, -2.1, 10%, 1, -3
C/C(N)=C(/C#N)C(=O)CSc1nc2ccccc2c(=O)n1-c1ccc(C)c(Cl)c1
    -12%[15.4 µM], 11, 1.8, 9%, 6, -7
O=C(CNC(=O)c1ccc(F)cc1)NCc1ccc(Cl)cc1
    9%, 11, -1.4, -16%, 7, -6
FC(F)(F)c1cccc(Oc2ccc3c(C(F)(F)F)cc(C(F)(F)F)nc3n2)c1
    -25%, 5, -2.1, -5%, -2, -11
COc1ccccc1C1C=C(c2ccc(C)cc2)Nc2nnnn21 (stereo not drawn)
    ?, 0, -3.2, -6%, 0, -20

Three compounds from above, ordered by the value under gsp antag, lowest first.
SMILES | gsp ag | CtBP-E1A inh | D2 agonist | gsp antag | Six1-Eya2 inh | D2 PAM
COc1ccc(Cn2nnnc2C(c2ccc3ncccc3c2)N2CCN(C3CCCCC3)CC2)cc1 (stereo not drawn) | ? | 0 | -0.9 | 4% | -2 | -1
Cc1cccc(NNC(=O)C2CCC2)c1 | -22% | . | -4.3 | 8% | 5 | -23
Cc1ccc(NC(=O)N2CCCC2)cc1Cl | -19% | -9 | -0.1 | 14% | 0 | -5

Later entries
Value order – gsp ag, CtBP-E1A inh, D2 agonist, gsp antag, Six1-Eya2 inh, D2 PAM
O=c1[nH]c(SCc2nc3c(cnn3-c3ccccc3)c(=O)[nH]2)nc2ccccc12
    0%, -3, -4.0, -10%, -6, -10
Cc1cc(OC(=O)c2ccco2)c(Sc2ccccc2[N+](=O)[O-])c(=O)o1
    11%, -7, -4.7, -21%, -17, -9
Cn1c(=O)cc(SCC(=O)N2CCCC2)c2cc(Cl)ccc21
    ?, 4, 1.5, -1%, 4, -12
COc1cccc(C(=O)N2CCN=C2SCc2cccnc2)c1OC
    -5%, -2, -5.2, 2%, -3, -9
CC(C)CC(=O)NC(=S)Nc1nc(-c2ccccc2)cs1
    -32%[inhibitor], 5, -1.4, 5%, -3, -19
Cc1nnc2n1NC(c1ccc(Cl)cc1)C(C(=O)N(C)C1CCCCC1)S2 (stereo not drawn)
    -15%, -4, -2.1, -8%, 9, 5
C=CCOc1ccc(/C=C/C(=O)OCC(=O)N2CCCc3ccccc32)cc1
    1%, -3, -0.2, 5%, 7, 24
